Compound activity deposited in PubChem BioAssay by National Center for Advancing Translational Sciences (NCATS).
Marburg entry inh: qHTS for inhibitors of binding or entry into cells for Marburg Virus; Marburg virus pseudotyped entry inhibition, cell reporter; control for the full effect not named in the record; about a third of the inactives were read at about 46 µM; Potency, µM (series often up to 37.8 µM), for the others: top-dose activity change, negative = inhibition, usual class: inhibitors; hit rate 1.8% among 300,000; active = well fitted inhibition curve with a large enough effect; inconclusive = small, poorly fitted or top-dose-only effect, or effect the other way; inactive = flat fitted curve, though single readings scatter; tested in HEK293 cells; about a fifth of its hits are not listed in these tables; also: % is scaled to controls: 0 for no effect and ±100 for the full control effect; luciferase read-out
Cruzain noTriton: qHTS Assay for Promiscuous and Specific Inhibitors of Cruzain (without detergent) | purified cruzain, Z-FR-AMC fluorescence, no detergent | hit rate 2.3% among 200,000 | AID 1476, 2009 | Cruzipain (Trypanosoma cruzi), P25779 | Potency, µM, inactives show max response, negative = inhibition, usual class: inhibitors;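 also: plate controls were enzyme without inhibitor for no effect and buffer without enzyme for full effect; nearly all actives have a fitted effect of over 40% in size; top concentration of the series not given in the record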
Target sequence (P25779 123-467 limits assumed): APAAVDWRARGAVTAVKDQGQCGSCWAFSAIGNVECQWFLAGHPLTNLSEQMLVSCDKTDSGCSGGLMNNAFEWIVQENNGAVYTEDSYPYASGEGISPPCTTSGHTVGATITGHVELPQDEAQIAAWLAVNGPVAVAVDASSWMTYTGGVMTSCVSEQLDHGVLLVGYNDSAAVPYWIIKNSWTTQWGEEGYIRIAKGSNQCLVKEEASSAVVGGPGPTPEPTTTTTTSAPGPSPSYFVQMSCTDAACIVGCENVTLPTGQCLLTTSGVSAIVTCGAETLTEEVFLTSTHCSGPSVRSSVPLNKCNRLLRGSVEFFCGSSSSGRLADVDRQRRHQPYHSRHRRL
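Purified cruzain at 1.5 nM, pre-incubated 15 min with compound at room temperature in 100 mM sodium acetate pH 5.5, 5 mM DTT, 0.00005% Triton X-100. Reaction started with 2 uM Z-FR-AMC; AMC fluorescence increase over 60 s gives rate.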
LASV entry inh: qHTS for Inhibitors of binding or entry into cells for Lassa Virus. Lassa virus pseudotype entry inhibition, cell reporter; control for the full effect not named in the record. Potency, µM (highest dose often 37.9 µM), inactives show top-dose activity change, negative = inhibition, actives largely listed as inhibitors. hit rate 1.2% among 300,000; active means well fitted inhibition curve with a large enough effect; inconclusive means small, poorly fitted or top-dose-only effect, or effect the other way; inactive means flat fitted curve, though single readings scatter; tested in HEK293 cells; also: % is scaled to controls: 0 for no effect and ±100 for the full control effect; nearly all actives have a fitted effect of over 50% in size; luciferase read-out
RE007 growth inh: qHTS Assay for Inhibitors of the HIV-1 protein Vpr. AID 651644, 2012. Potency, µM (series often up to 92.2 µM), for the others: at the top dose activity change, negative = less growth. S. pombe RE007 Vpr strain, BacTiter-Glo ATP luminescence, 24 h; control for the full effect not named in the record. hit rate 0.21% among 360,000; active = well fitted falling curve with a large enough effect; inconclusive = small, poorly fitted or top-dose-only effect; inactive = no such curve, though single readings can be large or run the other way;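 also: % is scaled to controls: 0 for no effect and ±100 for the full control effect; nearly all actives have a fitted effect of over 50% in size; the assay follows cell death caused by Vpr and the record does not say whether a fall means rescue or toxicity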
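Fission yeast strain RE007, carrying one chromosomally integrated HIV-1 vpr copy, was seeded at OD 0.01 in PMG+AL medium with 23 nL pinned compound. After 24 h at 30 °C and 99% humidity, viability was read by BacTiter-Glo luminescence.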
StopGo reporter: High Throughput Screening for Foot and Mouth Disease Virus Antivirals. human cells with a luciferase reporter of 2A StopGo recoding; control for the full effect not named in the record. Potency, µM (top dose mostly 57.9 µM), without a hit: at the highest dose signal change, negative = less light. hit rate 1.2% among 410,000. AID 1159524, 2015; active = well fitted falling curve with a large enough effect; inconclusive = small, poorly fitted or top-dose-only effect; inactive = no such curve, though single readings can be large or run the other way; tested in HEK293T cells; also: % is scaled to controls: 0 for no effect and ±100 for the full control effect; nearly all actives have a fitted effect of over 45% in size; luciferase light after 4 h
Cruzain Triton: qHTS Assay for Promiscuous and Specific Inhibitors of Cruzain (with detergent) | purified cruzain, Z-FR-AMC fluorescence, 0.01% Triton | Cruzipain (Trypanosoma cruzi), P25779 | Potency, µM, for the others: max response, negative = inhibition, actives largely listed as inhibitors | hit rate 0.43% among 200,000;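 also: plate controls were neutral wells for no effect and buffer without enzyme for full effect; nearly all actives have a fitted effect of over 40% in size; top concentration of the series not given in the record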
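Detergent-containing arm of a paired screen for aggregation-based inhibition: 0.01% Triton X-100 present. Cruzain at 1.5 nM cleaved 2 uM Z-FR-AMC at pH 5.5 with 5 mM DTT; AMC fluorescence gain over 60 s measured activity.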
SARS PLP yeast: qHTS of Yeast-based Assay for SARS-CoV PLP; S. cerevisiae expressing SARS-CoV PLpro, growth rescue; control for the full effect not named in the record; Potency, µM (series often up to 32.9 µM), for the others: at the highest dose activity, positive = growth rescue; hit rate 0.19% among 330,000; AID 485353, 2010; active means well fitted rising curve with a large enough effect; inconclusive means small, poorly fitted or top-dose-only effect; inactive means no such curve, though single readings can be large or run the other way; also: 0% is about no effect; nearly all actives have a fitted effect of over 55% in size; growth read by luminescence after 48 h
NS1 inh: qHTS Assay for Inhibitors of Influenza NS1 Protein Function; S. cerevisiae slowed by influenza A NS1, growth recovery by OD600; Potency, µM (series often up to 46.1 µM), inactives show at the top dose activity, positive = more growth; hit rate 0.4% among 270,000; active means well fitted rising curve with a large enough effect; inconclusive means small, poorly fitted or top-dose-only effect; inactive means no such curve, though single readings can be large or run the other way; also: nearly all actives have a fitted effect of over 50% in size
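Read-out: OD600 growth recovery of NS1-expressing budding yeast. Cells grown overnight at 30C in -URA glucose medium, washed, resuspended and diluted 1:100 in 2% galactose assay medium, pH 6.0. Same strain lacking NS1 served as positive control.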
* hit, by the source's call; ? = inconclusive; nt = not tested or not shown; & = joins results of further samples; [ ] = remark or other dose. Unless noted, calls follow the shape of the dose curve; as a rule, active = well fitted curve in the direction sought with a large enough effect; inconclusive = small, poorly fitted or top-dose-only effect, or another doubt; inactive = no such curve, though single readings can be large; an effect the other way counts as inactive or inconclusive. Potency is read from the fitted curve at half-maximal effect.

SMILES	Marburg entry inh	Cruzain noTriton	LASV entry inh	RE007 growth inh	StopGo reporter	Cruzain Triton	SARS PLP yeast	NS1 inh
COc1ccc([N+](=O)[O-])cc1NC(=O)C(C)N(C)Cc1ccc(Br)cc1 (stereo unspecified)	-21.1%	?	-3.2%	-3.8%	?	-4.4%	13.8%	7.0%
CCOC(=O)c1c(C2CC2)csc1NC(=O)CSCc1c(C)noc1C	-7.0%	2.1%	-16.1%	0.7%	?	-12.1%	-2.2%	-30.4%
COc1ccc(CC(=O)NC2CC(C)(C)NC(C)(C)C2)cc1OC	4.6%[46.1 µM]	nt	13.4%[46.1 µM]	4.6%	-17.5%	nt	11.3%	25.3%
COc1ccc2c(c1)[nH]c1c(=O)n(CC3CCCO3)cnc12 (stereo unspecified)	14.1%	-8.7%	?	0.7%	57.4%[activator]	-1.8%	21.0%	-9.0%
CC(C)(C)NC(=O)C(c1cccs1)N(Cc1cccs1)C(=O)c1csnn1 (stereo unspecified)	nt	nt	nt	5.5%	-1.2%	nt	1.0%	-0.9%
Cc1ccc(N2C(=O)CC(c3ccccc3F)C3=C2COC3=O)cc1Cl (stereo unspecified)	-1.8%[46.1 µM]	-9.9%	-9.3%[46.1 µM]	nt	-26.9%	0.4%	nt	nt
Oc1ccc(C(c2nnnn2C2CCCC2)N2CCc3ccccc3C2)cc1 (stereo unspecified)	?	6.5%	-23.9%	-8.5%	30.4%[activator]	-7.1%	-2.7%	4.1%
CC(CN1C(C)CCCC1C)OC(=O)c1ccccc1Br (stereo unspecified)	?	nt	9.1%[46.1 µM]	-16.4%	-6.4%	nt	-0.7%	3.6%
Cn1c(=O)[nH]c(=O)c2c1nc(NCCc1ccccc1)n2CC(O)COc1ccccc1 (stereo unspecified)	2.2%	?	-10.5%	-6.3%	-21.7%	3.1%	0.6%	-2.3%
CCC(C(=O)NC1CCCC1)n1c2ccccc2c2nc(=O)cc(C)n21 (stereo unspecified)	-28.5%[46.1 µM]	nt	1.7%	-2.9%	-6.1%	nt	nt	nt
CN(CC(=O)Nc1ccc(Cl)c(C(F)(F)F)c1)C(=O)C1CSC2(C)CCC(=O)N12 (stereo unspecified)	-18.7%	nt	-2.1%	-28.0%	?	nt	-2.9%	nt
COc1cccc(NC(=O)C2CCN(S(=O)(=O)c3ccc4[nH]c(=O)oc4c3)CC2)c1	nt	nt	nt	15.3%	-15.7%	nt	1.0%	1.5%
COc1ccc(C)cc1S(=O)(=O)N(CC(=O)O)c1ccc(C)cc1	10.5%	1.2%	-1.5%	20.9%	26.1%	-1.4%	-0.4%	1.0%
Cc1ccc(CN2CCNC(=O)C2CC(=O)N(C)Cc2cnccn2)cc1 (stereo unspecified)	nt	nt	nt	12.9%	-8.3%	nt	5.5%	-3.4%
NCCCCCCNS(=O)(=O)c1cccc2c(Cl)cccc12	?	-4.9%&-12.6%&3.5%	nt	5.4%[18.4 µM]	-7.8%&20.9%&-3.8%&0.7%	-5.0%&-9.5%&-6.5%	nt	-6.9%
O=C(CCCN1C(=O)S/C(=C\C=C\c2ccccc2)C1=O)Nc1ccc(C(=O)O)cc1	-5.5%	nt	-0.3%	-2.9%	35.8%[activator]	nt	0.8%	4.9%
COc1ccc(S(=O)(=O)N2CCCCC2)cc1NC(=O)C1CC(=O)N(c2ccc3c(c2)OCCO3)C1 (stereo unspecified)	?	nt	-2.6%	14.1%	3.6%	nt	-0.2%	nt
CCOc1ccc(C(=O)COC(=O)CC)cc1	0.0%[46.1 µM]	3.1%	-15.9%	-9.5%	11.2%	-2.8%	-1.1%	1.8%
CCc1cc2cc(C)c(C)cc2nc1SCC(=O)Nc1cc(C)on1	21.0%[46.1 µM]	nt	16.0%	-3.3%	-11.2%	nt	-0.7%	1.0%
COC(=O)C(Cc1ccc(O)cc1)NC(=O)C(C)Oc1ccccc1 (stereo unspecified)	-12.3%	-9.1%	13.7%	3.2%	-3.0%	-5.3%	-6.9%	-3.7%
CCOc1ccc(Oc2nc(C)cc(OC)n2)nn1	9.5%	-3.9%	19.4%	-8.3%	6.7%	-0.3%	5.8%	2.5%
COc1cc(NC(=O)CSCc2ccc(Cl)cc2Cl)c(C(=O)O)cc1OC	-0.6%	nt	6.2%	9.0%	-12.4%	nt	-2.0%	24.8%
CCOc1ccc2nc3c(cc2c1)CN(CCOC)C(=NCCOC)S3	?	-2.3%	?	8.9%	-9.4%	-17.1%	-6.2%	3.3%
CCN(c1ccccc1)S(=O)(=O)c1ccc(NC(=O)c2nc(S(C)(=O)=O)ncc2Cl)cc1	-23.7%&-23.7%[46.1 µM]	?	?	5.0%	28.2µM*	-6.5%	10.1%	-9.5%
O=C(NCc1ccco1)c1c2c(nc3ccccc13)CCC2	-4.5%	-3.7%	-3.0%	-20.3%	4.9%	-17.3%	10.3%	-7.9%
Following part.
SMILES	Marburg entry inh	Cruzain noTriton	LASV entry inh	RE007 growth inh	StopGo reporter	Cruzain Triton	SARS PLP yeast	NS1 inh
Cc1cc(NC(=O)COC(=O)C2CC(=O)N(c3ccccc3Cl)C2)no1 (stereo unspecified)	0.6%[46.1 µM]	nt	?	10.7%	-9.9%	nt	-2.7%	9.5%
COc1ccc(OC)c(CCNC(=O)c2c(C)oc3ncn(CC(C)C)c(=O)c23)c1	nt	3.9%	-17.0%[46.1 µM]	nt	-22.8%	-4.2%	nt	nt
CC(C)c1nn2c(=O)cc(COC(=O)c3cccc(NC(=O)c4ccccc4F)c3)nc2s1	nt	1.9%	-0.3%[46.1 µM]	nt	-5.6%	0.4%	nt	nt
CCCCOC(=O)c1ccc(NC(=O)CSc2nc3c(c(=O)[nH]2)CCC3)cc1	17.1%[46.1 µM]	-7.0%	-14.0%[46.1 µM]	nt	-12.2%	-6.8%	nt	nt
Cc1ccc(N(C(=O)c2snc(C(N)=O)c2N)C(C(=O)NCc2ccccc2)c2ccncc2)c(C)c1 (stereo unspecified)	?	nt	-17.7%[46.1 µM]	4.4%	-4.4%	nt	2.2%	-19.4%
CCOc1ccc(Nc2sc(C(=O)c3ccc(F)cc3)c(N)c2S(=O)(=O)c2ccc(C)cc2)cc1	nt	-10.9%	?	nt	-2.5%	-1.2%	nt	nt
COCCCN1C(=O)c2[nH]nc(-c3cc(C)ccc3O)c2C1c1ccc(F)cc1 (stereo unspecified)	nt	-0.5%	?	nt	-12.6%	-14.9%	nt	nt
CC1(C)CC(=O)C(C=NCCN2CCN(C(=O)C34CC5CC(CC(C5)C3)C4)CC2)=C(O)C1	?	?	0.0%	4.3%	-20.1%	8.5%	0.0%	1.9%
O=C(OCN1C(=O)c2ccccc2C1=O)c1cccnc1SC(F)F	-8.2%[46.1 µM]	nt	0.6%[46.1 µM]	-5.1%	9.9%	nt	-4.8%	0.9%
CCC(C)C(=O)Nc1nc(C)c(-c2csc(Nc3ccc(Cl)cc3)n2)s1 (stereo unspecified)	nt	3.98µM*	nt	6.7%	0.0%	-0.3%	1.7%	?
O=C(CC1Oc2ccccc2NC1=O)NCCCN1CCN(Cc2ccccc2)CC1 (stereo unspecified)	0.2%	1.4%	nt	1.6%	-8.6%	1.5%	-0.7%	-4.7%
C/C(CC(=O)Nc1ccc(C)c(Cl)c1)=N\NC(=O)C1CCCCC1	-1.1%	nt	-5.3%	-19.0%	-10.7%	nt	-0.9%	2.8%
CCOC(=O)c1cc2c(nc1NC(=S)Nc1ccccc1)CC(C)(C)OC2	-2.6%	12.9%	1.5%	9.4%	-1.5%	-1.2%	-1.1%	13.1%
CCn1c(C)cc(C(=O)COC(=O)c2ccccc2[N+](=O)[O-])c1C	nt	nt	0.316µM*	?	5.62µM*	nt	-19.0%	nt
CCOc1ccc(-c2cc3c(=O)n(CC(=O)NCc4ccc(OC)cc4)ccn3n2)cc1	nt	4.1%	21.2%[46.1 µM]	nt	43.7%[activator]	0.4%	nt	nt
CC(C)(CNC(=O)c1ccc(NS(=O)(=O)c2ccc(F)c(F)c2)cc1)N1CCOCC1	10.8%	nt	1.5%	-8.0%	-7.9%	nt	3.2%	nt
O=C(C1CCCN(S(=O)(=O)c2cnc[nH]2)C1)N1CC(=O)N(CCc2ccccc2)C(=O)C1 (stereo unspecified)	5.3%	-6.6%	-4.9%	21.2%	-12.0%	-5.1%	-16.0%	-5.0%
CCN(CC)CCNC(=O)c1ccc2c(c1)NC(=O)c1ccccc1S2	nt	nt	nt	-6.1%	?	nt	1.4%	-3.5%
O=C1C=CC(=Nc2cccc3c2C(=O)c2ccccc2-3)O1	?	nt	5.4%[46.1 µM]	1.2%	12.7%	nt	nt	nt
COC(=O)c1cc(C)c(C)cc1NC1OC(CO)C(O)C1O (stereo unspecified)	5.9%	nt	17.9%	5.8%	7.6%	nt	nt	nt
CCOC(=O)C1CCN(C2=NC(=O)/C(=C/c3ccc(Cl)cc3)S2)CC1	-8.4%[46.1 µM]	nt	-10.7%[46.1 µM]	-17.8%	1.4%	nt	-3.4%	-0.6%
c1ccc2c(c1)CCOC2CNCCCN1CCCCC1 (stereo unspecified)	?	-23.9%	-22.7%	19.8%	-10.2%	0.1%	-9.8%	5.7%
Cc1n[nH]c(C)c1S(=O)(=O)N1CCN(C(=O)c2ccco2)CC1	15.5%[46.1 µM]	2.6%	6.7%	13.6%	-12.0%	4.5%	4.7%	-5.1%

Two successive compounds from above:
SMILES	Marburg entry inh	Cruzain noTriton	LASV entry inh	RE007 growth inh	StopGo reporter	Cruzain Triton	SARS PLP yeast	NS1 inh
CCOc1ccc(-c2cc3c(=O)n(CC(=O)NCc4ccc(OC)cc4)ccn3n2)cc1	nt	4.1%	21.2%[46.1 µM]	nt	43.7%[activator]	0.4%	nt	nt
CC(C)(CNC(=O)c1ccc(NS(=O)(=O)c2ccc(F)c(F)c2)cc1)N1CCOCC1	10.8%	nt	1.5%	-8.0%	-7.9%	nt	3.2%	nt
